Source: PubChem BioAssay (National Center for Advancing Translational Sciences (NCATS))
FEN1 inh: qHTS Assay for the Inhibitors of Human Flap endonuclease 1 (FEN1). Potency, µM (highest dose often 114 µM), for the others: at the top dose activity change, negative = inhibition, usual class: inhibitors. P39748. Recombinant FEN1 flap cleavage, fluorescence, 15 min. actives 0.35% (n = 390,000). AID 588795, 2011; note: nearly all actives have a fitted effect of over 65% in size
Target sequence (P39748 whole entry, looked up): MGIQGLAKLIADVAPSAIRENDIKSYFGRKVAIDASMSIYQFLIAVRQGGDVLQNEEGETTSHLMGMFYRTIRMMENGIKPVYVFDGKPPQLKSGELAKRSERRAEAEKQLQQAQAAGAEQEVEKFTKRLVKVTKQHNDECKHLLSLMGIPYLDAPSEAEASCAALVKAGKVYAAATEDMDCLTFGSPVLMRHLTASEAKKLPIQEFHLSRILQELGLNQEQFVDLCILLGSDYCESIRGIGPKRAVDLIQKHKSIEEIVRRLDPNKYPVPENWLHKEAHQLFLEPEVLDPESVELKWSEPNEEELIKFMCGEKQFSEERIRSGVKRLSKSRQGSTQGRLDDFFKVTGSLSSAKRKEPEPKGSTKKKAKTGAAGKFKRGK
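Potency values derive from four-parameter Hill fits of normalized qHTS data. The reaction used 10 nM FEN1 preincubated 15 min at room temperature with compound, then 50 nM DNA substrate, read at 0 and 15 min.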
DT40 TDP1 CPT: qHTS for Inhibitors of human tyrosyl-DNA phosphodiesterase 1 (TDP1): qHTS in cells in presence of CPT; chicken DT40 Tdp1-/-;hTDP1 cells + 20 nM CPT, ATP luminescence, 48 h; Potency, µM (highest dose often 46.2 µM), without a hit: at the highest dose activity change, negative = growth inhibition, usual class: inhibitors; actives 12% (n = 420,000); note: nearly all actives have a fitted effect of over 55% in size
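Chicken DT40 Tdp1-/- cells stably complemented with human TDP1 were seeded at 400 cells/well in medium containing 20 nM camptothecin, exposed to pin-transferred compounds, and grown at 37 °C for at least 48 hr. Viability was read as ATP luminescence.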
Starred values were filed as active, the others as inactive; ? = inconclusive. Calls come from the whole dose curve; as a rule, active = well fitted curve in the direction sought with a large enough effect; inconclusive = small, poorly fitted or top-dose-only effect, or another doubt; inactive = no such curve, though single readings can be large; an effect the other way counts as inactive or inconclusive. % is set by controls: 0 for no effect and ±100 for the full control effect; potency is the fitted concentration of half-maximal effect. Only part of the results is shown, and most or all hits are left out here.

The opening 6 entries (preview)
smiles,FEN1 inh,DT40 TDP1 CPT
CC1(C)Oc2ccc3ccc(=O)oc3c2[C@@H](O)[C@@H]1O,11%,-3%
CC(C)NC(=O)Nc1cccc2c1O[C@H](CN(C)C(=O)NC1CCCCC1)[C@@H](C)CN([C@H](C)CO)C2=O,12%,-16%
Cc1ccc(CCNS(=O)(=O)c2c(C)nc3sccn3c2=O)cc1,-9%,-20%
CCOC(=O)c1c(C)nc(-c2ccccc2)nc1NC(=O)CC,-4%,-6%
COc1ccc(N2CC(C(=O)N3CCC4(CC3)CC(=O)c3ccccc3O4)CC2=O)cc1 (stereo not given),4%,?
CC(=O)c1ccc(NC(=O)CCC(=O)OCC(=O)c2cccc([N+](=O)[O-])c2)cc1,4%,-11%

The listing, from the first entry:
smiles,FEN1 inh,DT40 TDP1 CPT
CC1(C)Oc2ccc3ccc(=O)oc3c2[C@@H](O)[C@@H]1O,11%,-3%
CC(C)NC(=O)Nc1cccc2c1O[C@H](CN(C)C(=O)NC1CCCCC1)[C@@H](C)CN([C@H](C)CO)C2=O,12%,-16%
Cc1ccc(CCNS(=O)(=O)c2c(C)nc3sccn3c2=O)cc1,-9%,-20%
CCOC(=O)c1c(C)nc(-c2ccccc2)nc1NC(=O)CC,-4%,-6%
COc1ccc(N2CC(C(=O)N3CCC4(CC3)CC(=O)c3ccccc3O4)CC2=O)cc1 (stereo not given),4%,?
CC(=O)c1ccc(NC(=O)CCC(=O)OCC(=O)c2cccc([N+](=O)[O-])c2)cc1,4%,-11%
CN1CCN(C(=O)/C(=C/c2ccc([N+](=O)[O-])cc2)NC(=O)c2ccccc2)CC1,7%,14%
CCOC(=O)CN1C(=O)C(=O)N(Cc2ccccc2)C1=O,1%,2%
O=C(NC1CCCCCC1)c1cc(S(=O)(=O)N2CCOCC2)ccc1N1CCCCC1,1%,?
O=C(COc1cccc2ccccc12)N1CCN(c2ccccn2)CC1,-4%,-4%
CNc1nc(-c2c[nH]c3ccccc23)cs1,-21%,?
COc1cc(C(=O)NCc2nc(-c3ccc(Cl)cc3)no2)cc(OC)c1OC,-13%,6%
Cn1ccnc1-c1nc2ccccc2[nH]c1=O,-2%,2%
COc1ccc(-n2c3c(cc(C(=O)NNc4ccccc4)c2=O)C(=O)CC(C)(C)C3)cc1,-1%,-9%
N#CC1(NC(=O)CN2C(=O)NC3(CCCCCC3)C2=O)CCCCC1,-1%,-6%
O=C(O)Cc1ccc(NC(=O)c2cccs2)cc1,8%,1%
Cc1nc(NCCCn2ccnc2)c2oc3ccccc3c2n1,-3%,-6%
Cc1ccc(OCC(O)CNC(=O)c2ccccc2C(=O)O)cc1 (stereo not given),4%,1%
Cc1ccccc1NC(=O)c1cccc(N2C(=O)C3C4CC(C(Br)C4Br)C3C2=O)c1 (stereo not given),9%,-1%
O=C(/C=C/c1ccco1)NCC1COc2ccccc2O1 (stereo not given),-6%,?
Cc1cccc(CCN2C(Nc3ccccc3)=NC[C@@H]2C)c1,-16%,-29%
CCCCNC(=O)c1c(C)oc2ncn(CC(C)C)c(=O)c12,12%,-26%
CCn1c(SCC(=O)Nc2oc(C)c3c(C)n[nH]c(=O)c23)nc2sc(C)c(C)c2c1=O,-1%,?
CN(Cc1nc(-c2cnccn2)no1)CC1(c2ccccc2)CC1(C)C (stereo not given),-2%,-14%
O=c1cc(CSc2nnc(Nc3ccccc3F)s2)nc2sccn12,-2%,?
CCOCCn1c(=O)c2c(nc3n2CCCN3Cc2ccccc2)n(C)c1=O,3%,28%
COc1ccc(C2C=C(c3ccc(C)cc3)Nc3c(C(=O)Nc4ccccc4)cnn32)cc1 (stereo not given),-17%,?
CCc1ccc(S(=O)(=O)NCc2ccc3c(c2)CCN3C(=O)c2ccc(C)cc2)cc1,-18%,7.3µM*
CC(C)OC(=O)Nc1ccc(Oc2c(F)c(F)c(F)c(F)c2F)cc1,-3%,?
CC1Cc2cc(/C(O)=C3/C(=O)C(=O)N(CCCN4CCOCC4)C3c3ccc(C(C)C)cc3)ccc2O1 (stereo not given),-19%,-13%
CCOC(=O)c1c(NC(=O)COC(=O)Cc2n[nH]c(=O)c3ccccc23)sc(C(=O)NC)c1C,-30%,?
CCC(C)Nc1oc(-c2ccc(COc3ccc(Cl)cc3)o2)nc1C#N (stereo not given),-1%,?
CC(CCc1ccco1)NC(=O)CCc1nnc2ccc(NCc3ccccc3Cl)nn12 (stereo not given),15%,-15%
COc1ccc(Cc2noc(CN3CCCN(C4Cc5ccccc5C4)CC3)n2)cc1OC,-15%,-17%
NC(=O)CSc1oc(-c2cccs2)nc1S(=O)(=O)c1ccc(Br)cc1,-6%,-14%
Cc1ccc(S(=O)(=O)Nc2ccc3c(c2)C(=O)N([C@H](C)CO)C[C@H](C)[C@@H](CN(C)Cc2ccccc2)O3)cc1,-14%,-7%
CCOC(=O)c1sc(C)c2c(=O)n(CCc3ccccc3)nnc12,-8%,-2%
Cc1ccccc1CN1CCCN(CC(=O)Nc2ccc3c(c2)OCCO3)S1(=O)=O,-9%,-30%
COc1ccc(-c2cc(NCCc3ccncc3)n3ncnc3n2)cc1,0%,-27%
O=c1c2oc3ccccc3c2n(Cc2ccccc2)c(=O)n1Cc1ccco1,5%,-21%
COC(=O)c1ccccc1NC(=O)c1cc2sccc2n1C,-11%,-3%
C=CCOc1ccc2ccccc2c1CNc1ncn[nH]1,-3%,-23%
CC(Oc1ccccc1)C(=O)N1CCN=C1SCc1ccc(F)cc1 (stereo not given),-4%,?
Cc1nc2nc(C)c(NS(=O)(=O)c3cccs3)c(=O)n2[nH]1,-2%,2%
CN(CCC1CCOCC1)Cc1cn[nH]c1-c1ccc(-c2ccccc2)cc1,-18%,?
CCn1c2ccccc2c2cc(NC(=O)c3ccco3)ccc21,-23%,?
CCN(CC)c1ccc(CNc2nc3ccccc3n2C)cc1,6%,-27%
CCOc1cc(CNCCCN2CCOCC2)cc(Br)c1OCC(=O)Nc1cccc(C(F)(F)F)c1,-2%,5.2µM*
COC(=O)c1ccc(NC(=O)C2CCN(C(=O)c3cc(OC)c(OC)c(OC)c3)CC2)cc1,-4%,?
COC(=O)c1ccc(Cl)c(S(=O)(=O)N2CCCC2)c1,-14%,0%
O=C(CSc1nnc(COc2ccccc2)n1Cc1ccco1)c1ccc(F)cc1,-19%,-30%
Cc1cccc(-n2c(C)cc(C(=O)NC3CCCCC3)c2C)c1,-12%,?
O=C(CSc1nc(-c2ccco2)cc(C(F)(F)F)n1)NCCCn1ccnc1,-10%,2%
CC(C)c1ccc(Nc2nnns2)cc1,4%,-17%
O=C(COC(=O)/C=C/c1cccc(Cl)c1)NCCC1=CCCCC1,6%,4%
C/C(=N\N=C(c1ccccc1)c1ccccc1)c1ccco1,-15%,2%
CC(Sc1nc(-c2ccccc2)cs1)C(=O)Nc1ccc(Cl)cn1 (stereo not given),2%,-21%
O=C(Cn1[nH]c(=O)c2ccccc2c1=O)N1CC=C(c2ccccc2)CC1,2%,11µM*
CCc1ccccc1Nc1nn2c(=O)c3ccc(C(=O)NCc4ccccn4)cc3nc2s1,-11%,?
CCOCc1cc(CN2CCN(c3ccccc3OC)CC2)c(O)c2ncccc12,7%,5.2µM*

The list continues.
smiles,FEN1 inh,DT40 TDP1 CPT
O=C(O)COc1ccccc1/C=N/Nc1ccc(S(=O)(=O)N2CCOCC2)cc1[N+](=O)[O-],-15%,-6%
O=C(c1ccccc1)n1c(=S)nc2ccccn21,-4%,?
COCCN(C(=O)COC(=O)c1sccc1C)c1c(N)n(Cc2ccccc2)c(=O)[nH]c1=O,-4%,11%
Cc1nc2scc(-c3cccs3)c2c(=O)n1CC(=O)O,-4%,0%
CC1CCCCN1C(=O)CSc1nnc2c(n1)[nH]c1ccccc12 (stereo not given),1%,-3%
Cc1c(NC(=O)CSc2nnnn2C)c(=O)n(-c2ccccc2)n1C,3%,-6%
C[C@H](O)CC1=C[C@H](O)[C@@H](C)OC1=O,4%,-6%
CCCC/C(C)=N/NC(=O)CN(c1ccc(Br)cc1)S(=O)(=O)c1ccccc1,-2%,-17%
CC[C@]1(C(=O)OC)[C@H]2C(=O)N(Cc3ccccc3)C(=O)[C@H]2[C@H]2CN=C(SCC(=O)c3ccccc3)N21,8%,?
CCOC(=O)C(NCCCCl)c1ccccc1 (stereo not given),-4%,13%
O=C1C=C(c2ccc(CO)cc2)C[C@@H](c2ccc3c(c2)OCO3)C1,14%,?
Nc1ccccc1C(=O)N=Nc1[nH]c(N)c2ccccc12,-5%,-9%
CCS(=O)(=O)c1nc2ccccc2n1CC(=O)N1CCOCC1,-2%,-7%
Nc1ccc(S(=O)(=O)N2CCCC2)cc1Cl,1%,-27%
CCOC(=O)c1ccc(NC(=O)CN(c2ccc(C)cc2)S(=O)(=O)c2c(C)noc2C)cc1,-3%,?
O=C(NNS(=O)(=O)c1ccc(F)cc1)c1cnccn1,4%,14%
Cc1c(C(=O)C(=O)N2c3ccc(F)cc3CCC2C)c2ccccc2n1C (stereo not given),-10%,2.6µM*
Cc1ccc(S(=O)(=O)N(C)C)cc1NC(=O)COc1ccc(-c2nnco2)cc1,-3%,-6%
COc1ccc(C(c2c(O)ccc3ccccc23)N2CCOCC2)c(OC)c1 (stereo not given),4%,?
CCNC(=O)c1sc2cc(C)ccc2c1Cl,-1%,5%

(more compounds)
The line under a structure holds: FEN1 inh | DT40 TDP1 CPT
- COC(=O)C1=C(C)N=c2s/c(=C/c3cccs3)c(=O)n2C1c1ccc(F)cc1 (stereo not given)
  5% | ?
- Cc1c(Cl)cccc1NC(=O)Nc1cc(C(C)(C)C)on1
  3% | ?
- O=C(NCCCn1ccnc1)C(=O)NCC1OCCCN1S(=O)(=O)c1ccccc1 (stereo not given)
  1% | -17%
- CCOC(=O)c1c(NC(=O)COc2ccccc2F)sc2c1CC(C)(C)NC2(C)C
  -1% | 9.2µM*
- COc1cc(NC(=O)c2ccc3c(SCC(=O)O)c4c(nc3c2)CCCC4)cc(OC)c1OC
  -26% | -3%
- Fc1ccc(Cl)cc1/C=N/n1cnnc1SCc1ccccc1
  -17% | -8%
- CCOC(=O)C1(Cc2cccc(F)c2)CCN(Cc2nc(CC)[nH]c2C)CC1
  0% | ?
- CCN(CCn1cccn1)Cc1c(C(=O)N2C[C@@H](C)O[C@@H](C)C2)nc2ccc(Cl)cn12
  -2% | 2%
- CCOc1ccccc1NC(=O)c1cc(SC)ccc1Cl
  -9% | ?
- COc1ccccc1C(C)NC(=O)Cc1ccsc1 (stereo not given)
  -12% | -6%
- Cc1nn(-c2ccccc2)c2c1cc1c(=O)n(C)c(=O)nc-1n2-c1ccccc1F
  -6% | -30%
- CC(C)N1CCC(N2CCN(C3CCCC3)CC2CCO)CC1 (stereo not given)
  -4% | 13%
- CCN(C(=O)COC(=O)c1ccc(O)cc1O)c1c(N)n(Cc2ccccc2)c(=O)[nH]c1=O
  -4% | -4%
- N#Cc1ccc(S(=O)(=O)NCC(=O)OCC(=O)NCCc2ccccc2)cc1
  -3% | 7%
- Cc1cccc(C)c1N(CC(=O)NCc1ccc(F)cc1)C(=O)c1csnn1
  -12% | ?
- COc1ccc(/C=C/C(=O)N2CCN(c3ccccn3)CC2)cc1OC
  -1% | -24%
- CC1CCc2c(sc(NC(=O)C(=O)NCc3ccco3)c2C#N)C1 (stereo not given)
  1% | 5%
- O=C(c1cc(S(=O)(=O)N2CCOCC2)ccc1Cl)N1CCN(c2ccccn2)CC1
  -1% | -27%
- COC(=O)c1cccc(CSc2nc3ccccc3[nH]2)c1
  -3% | ?
- CCCCn1c(N)c(N(CCC(C)C)C(=O)c2ccccc2-n2cnnn2)c(=O)[nH]c1=O
  2% | 4%
- CCOC(=O)[C@@H]1[C@H]2COc3ccccc3[C@@H]2N2C(=O)N(c3ccc(C)cc3)C(=O)[C@]12C
  0% | -20%
- Cc1ccc(NC(=S)N2CCN(S(C)(=O)=O)CC2)cc1Cl
  7% | -17%
- O=C(Nc1ccccc1F)c1cc(S(=O)(=O)N2CCOCC2)cs1
  0% | 11%
- N#Cc1ccccc1N=C1CCCN1Cc1ccccc1
  -1% | -6%
- Cc1cc(Br)ccc1SCC(=O)NNC(=O)c1ccco1
  -5% | -6%
- O=C(O)Cc1cn(Cc2ccc(F)cc2)c2ccccc12
  2% | 8%
- O=C(c1ccc2c(c1)N(Cc1ccccc1)C(=O)CS2)N1CCOCC1
  1% | 1%
- COc1ccc(Br)cc1/C=N/NC(=O)CN1CCCCC1
  14% | ?
- Cc1cc(S(=O)(=O)N2CCOCC2)ccc1OCC(=O)NCC1CCCO1 (stereo not given)
  7% | -6%
- Cc1ccccc1S(=O)(=O)Cc1ccc(C(=O)N2CCN(c3ccccc3F)CC2)o1
  7% | ?
- CC(C)(C)c1nnc2sc(SCC(=O)N3CCCCC3)nn2c1=O
  14% | ?
- CCC(=O)Nc1cc2c3c(c1)CCC(=O)N3CCC2
  2% | 22%
